# Bioassay records (PubChem BioAssay)
# Ecoli growth: inhibitors of Escherichia coli growth | AID 1053175 | OD600 absorbance (concentration not given with the values) | 330,000 tested, 0.21% active | OD600, 23 h; active compounds read low;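 active = OD600 absorbance below the run mean of sample wells minus 3.6 SD, in any replicate, cut at about 0.56 in these data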;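 also: stock transfer was 300 nL into about 60 µL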
# FGF22 binding: shifts melting point of recombinant human FGF22. AID 651658. calls only at 9.99 µM. recombinant FGF22 thermal shift, SYPRO orange fluorescence; percent of sucrose octasulfate shift, DMSO zero. Q9HCT0. 340,000 tested, 1.5% active;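 active = melting point raised past a set limit in the mean and every replicate; inconclusive = no clear call; three in four hits are not shown here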
# Target sequence (Q9HCT0 whole entry, looked up): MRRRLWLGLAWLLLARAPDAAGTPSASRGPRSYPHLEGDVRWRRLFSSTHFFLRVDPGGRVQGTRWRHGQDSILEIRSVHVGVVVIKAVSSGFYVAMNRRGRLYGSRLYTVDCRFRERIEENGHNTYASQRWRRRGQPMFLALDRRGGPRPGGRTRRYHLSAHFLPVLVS
# HNF4A DNA FP: change in binding of human HNF4 alpha to DNA. HNF4a-FITC DNA binding, fluorescence polarization, 1 h. 360,000 tested, 0.3% active. AID 1224865. activity change, % at 10 µM; in the data active = activity change above about 30%, passing the limit was not always enough;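 also: controls were the assay level and a saturating level of protein; the project sought stronger binding though the title names inhibitors; some compounds called inactive have numbers as strong as hits; positive values seem to mean higher polarization but the record does not say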
# Target sequence (P41235 whole entry, looked up): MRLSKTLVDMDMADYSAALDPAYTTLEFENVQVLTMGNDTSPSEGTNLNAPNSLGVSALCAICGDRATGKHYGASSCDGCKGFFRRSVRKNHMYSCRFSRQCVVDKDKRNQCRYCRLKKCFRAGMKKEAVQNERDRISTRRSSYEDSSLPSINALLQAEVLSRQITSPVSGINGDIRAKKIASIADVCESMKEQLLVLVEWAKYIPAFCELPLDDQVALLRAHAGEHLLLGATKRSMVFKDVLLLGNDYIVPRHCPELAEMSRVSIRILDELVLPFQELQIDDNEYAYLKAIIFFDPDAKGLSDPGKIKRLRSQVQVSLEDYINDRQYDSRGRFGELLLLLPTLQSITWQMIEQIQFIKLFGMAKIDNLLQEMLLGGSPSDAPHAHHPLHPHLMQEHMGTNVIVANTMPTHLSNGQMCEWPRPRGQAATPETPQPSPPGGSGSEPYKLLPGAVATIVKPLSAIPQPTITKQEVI
# UCH37 inh: blocks the human deubiquitinase UCH37; inhibition, % (test concentration not listed); purified proteasome/UCH37, Ub-AMC cleavage fluorescence; 330,000 tested, 0.33% active;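 active = mean of two replicates above 20%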;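 also: 0% = compound-free wells with enzyme and 100% = wells lacking proteasome; stock transfer was 100 nL into about 20 µL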
# Target sequence (Q9Y5K5 whole entry, looked up): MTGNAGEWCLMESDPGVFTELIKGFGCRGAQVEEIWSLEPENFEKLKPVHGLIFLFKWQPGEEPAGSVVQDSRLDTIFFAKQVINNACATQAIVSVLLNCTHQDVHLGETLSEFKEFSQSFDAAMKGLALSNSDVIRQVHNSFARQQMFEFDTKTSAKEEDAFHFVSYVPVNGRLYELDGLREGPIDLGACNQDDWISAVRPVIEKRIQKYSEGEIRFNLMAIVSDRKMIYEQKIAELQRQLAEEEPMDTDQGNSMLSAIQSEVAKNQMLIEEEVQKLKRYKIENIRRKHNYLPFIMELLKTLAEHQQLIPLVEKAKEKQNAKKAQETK
#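 Material: human UCH37 enzyme supplied as purified proteasome complex. Measure: % inhibition of Ub-AMC cleavage fluorescence. Medium: pH 7.4 Tris-HCl (50 mM) with ovalbumin, ATP-MgCl2, DTT. Times: 30 min preincubation with enzyme, 25 min cleavage at room temperature. Detection: AMC fluorescence intensity at 355/460 nm.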
# ALR H2O2 inh: inhibitors of human sulfhydryl oxidase ALR. P55789. purified ALR, DTT oxidation, H2O2 HRP-luminol luminescence. inhibition, % (concentration not given with the values). 290,000 tested, 3.8% active. AID 485317;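 active = mean and each replicate at 75% or more; inconclusive = only one of the two met; inactive = neither met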;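 also: stock transfer was 7.5 nL into about 7.5 µL; 0% = neutral wells and 100% = wells with inactivated enzyme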
# rRNA inh HTS: inhibits bacterial ribosomal RNA function over humanized ribosomes. E. coli WT GFP vs humanized-ribosome RFP mutants, fluorescence, 24 h; active compounds read low; DMSO median 0, no signal -100. GFP signal change (wild-type ribosome), % (no concentration beside the values). 350,000 tested, 1.6% active. AID 720706;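 active = significant combined selectivity score with lowered wild-type GFP, culture density cut under 30%, mutant RFP and density less affected; inactive = any of these conditions unmet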; also: one replicate is shown; some compounds called inactive have numbers as strong as hits
# B2AR ag: activates human beta-2 adrenergic receptor causing internalization. Am2.2-beta2AR cells, FAP receptor internalization, flow cytometry; reference of the scale not given here. AID 504454. response, % (no concentration beside the values). 340,000 tested, 0.43% active. P07550;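 active = response above a set limit, near 3 SD of response in nonfluorescent compounds, cut at about 42% in these data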;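 also: stock transfer was 100 nL into about 11 µL; a reference agonist was the positive control; negative values mostly stem from fluorescent compounds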
# rRNA inh HTS OD600: recorded beside rRNA inh HTS, whose call it bears; OD600 change, %; measured here: OD600 growth;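 optical density of the mix in the first replicate; 0 = DMSO median and -100 = no signal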
# rRNA inh HTS RFP: further read-out of rRNA inh HTS, marked with its call; RFP signal change, %; measured here: RFP humanized mutant strains;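 first replicate; 0 = DMSO median and -100 = no signal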
# The depositor's hits bear a star; i = inactive; ? = inconclusive; . = no result given; + = active, no number; & = joins results of further samples.
SMILES,Ecoli growth,FGF22 binding,HNF4A DNA FP,UCH37 inh,ALR H2O2 inh,rRNA inh HTS,rRNA inh HTS OD600,rRNA inh HTS RFP,B2AR ag
CCOC(=O)N1CCC(NC(=O)Cn2nc(Cc3ccncc3)c3ccccc3c2=O)CC1,0.72,i,-2.3,1.6,.,5,7,-2.6,-1
N/C(=N\OC(=O)c1ccc2c(c1)OCO2)c1ccc(Br)cc1,0.66,i,2.6,-0.2,21,5,5,-0.5,4
COC(=O)C1=C(C)NC(C)=C(C(=O)OC)C1c1ccc(N(C)C)cc1,0.73,.,1.0,0.6,67,.,.,.,-8
C=CCn1c(SCC(=O)Nc2ccc(O)cc2)nc2sc(CC)cc2c1=O,0.66,i,2.0,-1.0,97*,-2,0,-3.3,-1
COc1ccc(CNC(=O)C2(CC3CC(c4ccccc4)=NO3)CCN(C(=O)C3(C)CC3)CC2)cc1 (stereo unspecified),0.7,.,1.1,-0.2,-26,.,.,.,-4
CCCCCC(=O)C(=O)c1ccc(O)cc1O,0.67,i,1.8,-4.7,5,15,9,2.2,1
CCCCSc1nc(C)cc(SCC(=O)N/N=C/c2cccc(OC)c2O)n1,.,.,-1.3,.,30,.,.,.,-2
CCc1nc(Nc2cc(OC)ccc2OC)c2oc3ccccc3c2n1,0.7,i,0.9,i,9,-1,8,-1.9,2
Cc1cc(C(=O)O)ccc1-c1ccc(/C=N/n2cnnc2)o1,.,i,-2.9,.,3,1,-3,-7.4,-10
CCN(CC)C(=O)c1sc2nc(-c3ccccc3)ccc2c1N,0.7,i,2.7,-30,69,-16*,-3.7*,4.9*,7
Cc1ccc(NCCNc2ccc(C)cc2)cc1,0.7,.,2.5,0.8,99*,.,.,.,9
CC(C)c1ccc(NC(=O)C(=O)C2C(=O)Nc3ccccc32)cc1 (stereo unspecified),0.6,i,0.4,1.5,7,10,3,0.7,9
C[C@@H]1CN([C@H](C)CO)C(=O)CCCn2nncc2CO[C@@H]1CN(C)C(=O)C1CC1,.,i,-3.4,.,.,10&3,16&-4,3.4&3.1,.
CCCCCOC(=O)C1=C(C)NC(=O)NC1c1ccc(OC)cc1 (stereo unspecified),0.64,i,-3.4,3.8,.,0,-5,-3.2,-4
COc1ccc(S(=O)(=O)N2CCC[C@H]2C(=O)N2CCC[C@H]2C(=O)NCc2ccc(F)cc2F)cc1C,.,i,1.6,.,.,-5,-6,4.5,.
CCOC(=O)c1sc2nc(CSc3nc4ccccc4n3CC)[nH]c(=O)c2c1C,0.69,.,13,4.3,-3,.,.,.,0
CCOC(=O)[C@H]1[C@H]2COc3ccc(Cl)cc3[C@@H]2N2C(=O)CN(CC3CCCO3)C(=O)[C@@]12C (stereo partly specified),.,i,5.1,3.8,0,6,3,1.5,-7
Cn1c(C(=O)N2CCOCC2)cnc1Sc1ncc(C(F)(F)F)cc1Cl,0.72,.,2.0,0.8,3,.,.,.,-4
COc1ccc(S(=O)(=O)N(CC(=O)N2CCN(c3ccccc3OC)CC2)c2ccccc2)cc1,0.72,.,-1.5,7.3,1,.,.,.,-4
CC(C)(C)c1ccc(C(=O)NCC(=O)OCC(=O)c2ccc3c(c2)-c2ccccc2C3)cc1,0.75,.,-1.8,-0.8,-1,.,.,.,-8
COc1ccc(CSc2nc(C)cc(=O)[nH]2)cc1Br,0.73,.,-0.9,2.7,98*,.,.,.,1
NC(=O)/C(=C\c1ccco1)NC(=O)c1ccc(Br)o1,0.71,i,1.1,8.2,-42,38,4,6.0,-3
O=c1[nH]cnc2nc3n(c12)CCCCC3,0.75,.,-3.0,-0.6,-26,.,.,.,0
N#CC1=C(Nc2ccccc2)SC=C(c2ccc(Cl)c(Cl)c2)N=C1N1CCOCC1,0.7,.,-4.6,9.6,-3,.,.,.,19
CCc1ccc(NCc2nc3ccccc3c(=O)[nH]2)cc1,0.68,.,-1.2,0.7,.,.,.,.,-4
O=C(NC1CCCCC1)C(c1ccc(F)cc1)N(Cc1ccco1)C(=O)c1csnn1 (stereo unspecified),0.68,i,-1.8,1.8,3,3,4,-1.2,-2
COc1ccc(NC(=O)C2CCCN2S(=O)(=O)c2ccc3c(c2)CC(C)N3C(C)=O)cc1OC (stereo unspecified),0.65,i,3.2,-0.9,-15,5,5,-0.1,-1
Cc1cc(OC(C)C(=O)NCC(O)c2ccccc2)c2c(C)c(C)c(=O)oc2c1 (stereo unspecified),0.7,i,-2.0,-165,-5,-2,3,0.3,-7
Oc1ccc(N2CCN(Cc3c(-c4ccccc4)nc4ccccn34)CC2)cc1,0.69,i,-0.7,-0.4,?,-13,-8,2.6,-17
O=C(O)C1=C[C@@H](c2ccc3c(c2)OCO3)C[C@@H](OCc2ccc(CO)cc2)O1,.,i,-2.8,0.5,-7,11,-3,-3.9,0
CC(=O)c1c(C)[nH]c(C(=O)COC(=O)c2ccc(C)s2)c1C,0.67,i,0.0,3.6,-14,11,17,-2.9,-1
O=C(Nc1ccc(Oc2ccccc2)cc1)c1ccco1,0.7,.,1.9,6.3,2,.,.,.,-9
NC(=O)Cn1c(=O)n(CCC(=O)Nc2ccc(F)cc2)c(=O)c2sccc21,0.67,i,1.4,2.9,-2,0,2,1.1,-8
O=C(Nc1ccc(OCC(F)(F)C(F)F)cc1)c1ccncc1,0.69,i,-6.8,1.8,.,-1,2,-3.9,1
Cc1ccc(C(=O)N(CC(=O)NC2CCCCC2)c2ccccc2F)s1,0.68,i,-0.8,5.5,10,-20,-16,-3.5,-1
COc1ccc2nc(NNC(=O)c3cc(=O)c4ccccc4o3)sc2c1,.,i,13,.,.,-46,-58,-8.4,-10
CCC(C)NC(=O)Nc1ccc(Br)cc1 (stereo unspecified),0.68,i,-1.9,4.3,0,1,10,-1.4,0
CCOc1nc(NCCc2ccc(OC)c(OC)c2)nc(NC(C)(C)CO)n1,0.64,.,1.4,2.0,-10,.,.,.,4
O=C(CN1CCCCCC1)Nc1ccccc1OC(F)F,0.66,i,3.9,-0.1,.,10,6,0.1,4
CC(=O)Nc1ccc(NC(=O)COc2ccc(Cl)cc2Cl)cc1,0.68,i,-2.1,4.3,0,-5,2,1.1,-2
COC(=O)c1c(NC(=S)NN2CCOCC2)sc2c1CCCC2,0.68,i,-4.0,0.5,51,9,2,2.0,-4
CCOC(=O)N/N=C/c1ccccc1OCc1ccc(Cl)cc1,.,i,-0.2,.,1,-25*,-18*,-3.2*,3
Cc1ccc(SC(C)C(=O)NCc2ccncc2)cc1 (stereo unspecified),0.71,i,-3.4,0.3,-5,15,17,-17,-4
COc1cccc(CNC(=O)CCCNS(=O)(=O)c2cccs2)c1,0.7,.,1.9,0.1,-5,.,.,.,6
Cc1ccc(-c2cc(C(=O)NCc3cccnc3)no2)cc1,0.74,.,-4.3,-1.2,1,-5,-4,-0.8,-3
COc1ccc(OCCNC(=O)C2(C)CCN2Cc2ccc(SC)cc2)cc1 (stereo unspecified),.,i,-1.6,.,.,-43,-49,-8.4,.
Cc1ccc(S(=O)(=O)N/N=C/c2cnn(C)c2C)cc1,.,.,0.3,.,23,.,.,.,-4
O=C(Nc1ccc(Cl)cn1)c1ccc2c(c1)OCCO2,0.63,i,0.1,0.6,-7,17,-1,-1.8,-8
COc1ccc(NC(=O)COc2nsnc2N2CCOCC2)cc1,0.69,.,1.4,1.0,-2,.,.,.,-9
CCOC(=O)c1c(C)[nH]c(C)c1C(=O)COC(=O)/C=C/c1ccccc1[N+](=O)[O-],0.68,+,3.0,2.6,19,-9,-15,10,1
Cn1cccc1C(=O)N1CCc2ccccc2C1,0.71,i,0.8,1.8,4,1,1,1.1,-2
Fc1cccc(C[n+]2csc3ccccc32)c1,0.68,.,2.8,3.9,3,.,.,.,-7
COc1cc(NC(=S)NCCC(c2ccccc2)c2ccccc2)c(OC)cc1Cl,0.76,.,1.4,1.1,-16,.,.,.,11
CC(C)Cc1cc(C(=O)N2N=C(C(F)F)CC2(O)C(F)F)c2ccccc2n1 (stereo unspecified),0.72,.,-3.0,2.3,-4,.,.,.,-6
COc1c(C)cc(C(O)c2ncc(-c3ccccc3Cl)[nH]2)cc1C (stereo unspecified),.,i,-1.1,.,.,2,-10,-2.4,.
CC(C)N1C(=O)/C(=C/c2nc3ccccc3c(=O)n2-c2ccccc2)c2ccccc21,0.76,.,0.5,0.5,4,.,.,.,47*
CCOC(=O)C1CCN(C(=O)Cc2c(C(=O)O)[nH]c3ccccc23)CC1,0.71,.,1.4,-3.0,-2,.,.,.,1
O=C(NCCCCc1ccccc1)c1ccc(Br)o1,0.62,.,-0.5,-0.2,-10,.,.,.,-5
CCNC(=S)Nc1cc(OCC)c(N2CCOCC2)cc1OCC,0.71,i,4.0,3.1,69,6,11,-1.6,5
CCOC(=O)C1=NN(c2ccccc2)C2=NC(C)=C(C(=O)OC)C(c3cccs3)N12 (stereo unspecified),0.7,.,-3.1,2.2,-5,.,.,.,-15
# (listing goes on)
SMILES,Ecoli growth,FGF22 binding,HNF4A DNA FP,UCH37 inh,ALR H2O2 inh,rRNA inh HTS,rRNA inh HTS OD600,rRNA inh HTS RFP,B2AR ag
CCCN(C(=O)c1cc(Cl)nc2ccccc12)C1CCS(=O)(=O)C1 (stereo unspecified),0.66,i,0.4,0.4,.,12,10,0.8,-1
Cc1cccc(NC(=O)CSc2nnc3ccc(-c4cccnc4)nn23)c1,.,i,-3.7,.,.,14,10,1.1,.
CCC1CCc2c([nH]c3ccccc3c2=O)O1 (stereo unspecified),0.59,.,1.6,0.1,-4,.,.,.,3
CCN(CC)CCNc1ccnc2cc(Cl)ccc12,0.72,i,1.2,3.8,-11,6,-9,1.9,11
CCN(C(=O)c1ccc(Cl)cc1[N+](=O)[O-])c1ccccc1C,0.72,i,1.0,2.3,-20,-9,-12,-1.0,-3
Cc1oc2ccc(O)c(CN(C)C)c2c1C(=O)c1ccccc1,0.66,i,2.5,0.5,-11,4,11,-0.6,-21
CCCCN(CC)Cc1ccc(CNC(=S)Nc2c(C)cc(C)cc2C)o1,0.7,i,2.7,5.8,4,5,3,-8.4,1
CCN(c1ccccc1)S(=O)(=O)c1ccc2c(c1)C(C)(C)C(=O)N2C,0.68,.,-3.2,2.6,13,.,.,.,2
CCCC(=O)Nc1ccc(Cl)c(NC(=S)NC(=O)c2ccco2)c1,0.75,+,-1.2,4.4,-4,-16*,-4.9*,2.8*,-38
COc1ccc(CC(=O)Nc2cccc(-c3csc(C)n3)c2)cc1,0.65,.,-0.7,-0.1,-16,.,.,.,-3
CCOc1ccc(NCc2nnc(SCC(=O)Nc3cc(C)on3)n2-c2ccc(OC)cc2)cc1,0.73,.,-4.3,2.3,-20,.,.,.,2

# This is a subset. The share of hits here may be higher or lower than overall.
